LANA-H2B inh – blocks KSHV LANA binding to histone H2A/H2B | Q9QR71 | cell-free LANA-H2A/H2B peptide, fluorescence polarization | inhibition, % (test concentration not listed) | 0.6% of 320,000 active; in the data active means inhibition mostly above about 10%, no sharp cut-off; inactive means mostly below about 6.7%;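 further: stock transfer was 7.5 nL into about 10 µL; 0% = median of vehicle wells and 100% = median of positive control wells; one replicate is shown; the record names a cut of 25% in any replicate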
Target sequence (Q9QR71 whole entry, looked up): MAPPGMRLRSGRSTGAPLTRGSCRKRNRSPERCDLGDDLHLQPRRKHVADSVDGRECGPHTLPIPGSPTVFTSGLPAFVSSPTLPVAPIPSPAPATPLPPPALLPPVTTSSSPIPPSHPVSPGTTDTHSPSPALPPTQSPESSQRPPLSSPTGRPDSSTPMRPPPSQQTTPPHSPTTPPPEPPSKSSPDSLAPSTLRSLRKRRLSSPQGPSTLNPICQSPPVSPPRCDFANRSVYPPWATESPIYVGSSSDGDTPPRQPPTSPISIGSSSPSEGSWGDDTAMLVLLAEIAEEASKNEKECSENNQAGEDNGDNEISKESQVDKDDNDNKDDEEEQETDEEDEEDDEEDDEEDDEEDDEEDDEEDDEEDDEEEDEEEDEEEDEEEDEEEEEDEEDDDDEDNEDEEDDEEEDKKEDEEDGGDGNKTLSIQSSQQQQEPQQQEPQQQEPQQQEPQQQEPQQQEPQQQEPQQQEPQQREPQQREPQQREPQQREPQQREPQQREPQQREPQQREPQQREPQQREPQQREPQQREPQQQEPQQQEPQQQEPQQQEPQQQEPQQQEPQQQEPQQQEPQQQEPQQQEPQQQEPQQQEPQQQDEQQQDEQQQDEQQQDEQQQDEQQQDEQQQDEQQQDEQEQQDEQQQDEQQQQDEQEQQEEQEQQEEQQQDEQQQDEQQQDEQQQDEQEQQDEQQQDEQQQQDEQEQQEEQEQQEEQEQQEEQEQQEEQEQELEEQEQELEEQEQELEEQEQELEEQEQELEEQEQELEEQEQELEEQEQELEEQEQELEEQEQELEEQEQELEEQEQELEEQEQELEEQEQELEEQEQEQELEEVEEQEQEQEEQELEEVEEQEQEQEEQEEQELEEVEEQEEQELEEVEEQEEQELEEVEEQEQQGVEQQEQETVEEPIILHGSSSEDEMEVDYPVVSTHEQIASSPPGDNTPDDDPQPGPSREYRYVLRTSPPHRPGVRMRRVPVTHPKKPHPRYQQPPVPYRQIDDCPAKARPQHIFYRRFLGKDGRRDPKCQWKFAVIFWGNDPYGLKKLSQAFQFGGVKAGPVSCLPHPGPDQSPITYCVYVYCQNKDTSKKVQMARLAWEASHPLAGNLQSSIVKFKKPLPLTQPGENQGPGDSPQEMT
Beta apoptosis – blocks beta cell apoptosis. AID 435005. protection from apoptosis, % (concentration not given with the values). 0.8% of 300,000 active. INS-1E cytokine-induced death, ATP luminescence, 48 h; percent of positive-control rescue, neutral wells zero;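 active means all replicates at 75% or more, or half of them and the mean; inconclusive means half reach 75% but not the mean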;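 further: 0% = cytokine-treated negative control wells and 100% = positive control rescue; higher means more ATP so stronger rescue from cytokine killing; wells of about 40 µL received 100 nL stock; the first replicate is given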
Calb FLC – affects C. albicans growth with fluconazole. C. albicans CaCi-2 (fluconazole-resistant clinical isolate) + fluconazole, Alamar Blue growth, 48 h. 0.57% of 300,000 active. AID 1979. growth inhibition, % (no concentration beside the values);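 active means most replicates above 75%; inconclusive means exactly half above 75%; inactive means most below 75%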;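 further: all wells also contain fluconazole at 8 µg/ml as a sub-toxic cotreatment; 0% = median of DMSO wells and 100% = median of geldanamycin control wells; wells of about 8 µL received 7.5 nL stock; the first replicate is given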
RanGTP-Impb inh – disruptors of Ran-importin-beta complex formation – biochemical, FRET, CFP-Ran, YFP-importin-beta, homogeneous, primary screen; 1.1% of 300,000 active; cell-free CFP-Ran/YFP-importin-beta FRET ratio; AID 2216; inhibition, % (concentration not given with the values);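 active means most replicates above 15%; inconclusive means exactly half above 15%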;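 further: 0% = DMSO wells and 100% = Ran loaded with GDP instead of GTP; wells of about 40 µL received 100 nL stock; the first replicate is given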
T cruzi inh – T. cruzi replication inhibition. T. cruzi beta-gal in NIH3T3, luminescence, 90 h. inhibition, % (concentration not given with the values). 1.4% of 300,000 active;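 active means mean inhibition across valid replicates above about 55%, limit read from the data; inconclusive means mean below that limit but half or more replicates reach it; inactive means mean below it, under half of replicates reach it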;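 further: signal also drops with host cell toxicity which is not excluded here; 0% = plate median of DMSO wells and 100% = zero luminescence signal; higher percent means less beta-gal luminescence so fewer parasites; stock transfer was 50 nL into about 50 µL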
Bfl-1 A1 inh – inhibitors of the anti-apoptotic protein A1, read as caspase activation; MEF A1-2A-BIM cells, Caspase-Glo 3/7 luminescence, 3 h; percent of clofoctol response, vehicle zero; caspase activation, % (test concentration not listed); 0.066% of 330,000 active;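 active means over half of replicate activation scores above 10%, or exactly half above 10 with the replicate mean above 10; inconclusive means replicate mean below 10 yet half the replicates above 10; inactive means over half of replicates below 10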;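 further: wells of about 30 µL received 50 nL stock; many hits fall short of the cut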
Vif A3G – HIV-1 Vif–A3G interaction blockers – biochemical, TR-FRET, GST-Vif 1-94, biotin-A3G peptide, dose response retest, primary screen (AID 1117319) | TR-FRET GST-Vif / biotin-A3G peptide binding; higher % means a stronger effect; test concentration not given here; strong numbers were not always called active | inhibition, %, or IC50 in µM where a hit was titrated | 0.57% of 260,000 active;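 active means above the screen mean plus three standard deviations and confirmed in dose response; inconclusive means results disagree or hit not tested in dose response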;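 further: Vif residues 1-94 fused to GST binding biotinylated APOBEC3G peptide 110-148; 0% = full assay without inhibitor and 100% = GST in place of GST-Vif; retest series ran down from 100 µM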
MLL AF4-AF9 inh – blocks AF4 peptide binding to human AF9 | P42568 | inhibition, % at 10 µM | AlphaScreen, biotin-AF4 peptide binding to FLAG-AF9 | 0.47% of 350,000 active;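 active means every replicate reaching a set inhibition limit, whatever the replicate mean, cut at about 25% in these data; inconclusive means mean inhibition reaches that limit but some replicates miss it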;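 further: 0% = plate neutral control median and 100% = total signal loss; the record names both 10 and 1 µM as test concentration; the first replicate is given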
An asterisk follows results filed as active; u = inconclusive; x = not tested or not shown; + = active, no number; & = joins results of further samples. Rows were taken by chance. Share with any hit: about 4.3%.

SMILES	LANA-H2B inh	Beta apoptosis	Calb FLC	RanGTP-Impb inh	T cruzi inh	Bfl-1 A1 inh	Vif A3G	MLL AF4-AF9 inh
Clc1ccccc1OCc1nnc2n1CCCCC2	2.6	-3.4	-12.7	0.5	-7.7	0.5	-3.4%	-1.5
CCN(C(=O)CSc1nc2ccccc2n1CC)C1CCS(=O)(=O)C1 (stereo not given)	2.3	-1.4	20.3	0.0	5.4	3.3	-4.7%	-0.5
Cc1ccc2nc(C(F)C(F)(F)F)[nH]c2c1 (stereo not given)	-1.6	-4.8	-3.4	1.1	-7.4	-0.8	-4.4%	-0.6
COC(=O)c1ccc(Cl)cc1N(Cc1c(F)cccc1Cl)S(C)(=O)=O	4.1	-0.3	-9.5	-0.2	2.6	0.1	13.5%	1.4
Cc1ccccc1OCC(O)Cn1c2ccccc2c2ccccc21 (stereo not given)	-0.5	31.2	-12.1	3.4	41.1	1.3	-4.2%	13.2
O=C(Nc1ccccc1)Oc1ccc[nH]c1=O	-5.5	-1.6	-19.8	5.4	-4.7	-0.7	1.5%	-5.4
C#CCOCCOCCOCCNc1nc(N2CCN(C(=O)[C@H](CCC(=O)O)n3cc(C(N)CC(C)C)nn3)CC2)nc(N2CCN(C(=O)[C@H](Cc3cc4ccccc4[nH]3)n3cc(C(N)[C@H](C)CC)nn3)CC2)n1 (stereo not given in full)	1.3	-0.4	7.2	3.7	-5.1	-0.3	u	x
C=CCn1c(N)c(C(=O)Nc2ccc(C)cc2)sc1=S	-0.5	-3.2	-3.0	-5.4	30.3	-0.1	-1.1%	x
COc1ccc(Cl)cc1NC(=O)CN(C)C(=O)Cn1cnc2c1c(=O)n(C)c(=O)n2C	-5.9	0.3	-5.9	x	-5.9	0.0	3.5%	-9.9
Cc1ccc2c(c1)/C(=N/OS(=O)(=O)c1ccccc1)CCS2	-0.7	2.8	0.5	-0.3	-8.4	-0.2	2.5%	x
CCNc1nc(CN2CCCCC2)nc2scc(-c3ccccc3)c12	-6.4	40.5	u	12.4	10.2	-0.6	0.9%	4.0
CCOc1ccc(S(=O)(=O)Nc2ccc(C(=O)NCC(c3ccco3)N(C)C)cc2)cc1 (stereo not given)	-2.0	0.0	-2.7	-2.1	2.1	-0.3	x	0.1
CC(C)(C)OC(=O)N1CCC(C(=O)Nc2ccc(C(=O)N3CCOCC3)cc2)CC1	2.9	-3.3	x	x	x	-1.4	x	-5.2
COc1ccc(N2CCN(C(CNC(=O)c3cccs3)c3ccco3)CC2)cc1 (stereo not given)	-0.5	x	-0.3	1.9	-6.7	0.6	-2.6%	7.4
O=C1NC[C@H](Cc2ccccc2)N(CCc2cccc(F)c2)C1=O	4.6	-5.2	6.3	-1.5	-12.9	-0.7	-4.1%	-16.6
O=C(Nc1ccc(-n2cc(Cl)cn2)cc1)c1ccncc1	-3.8	2.6	7.3	-1.0	-6.2	u	x	-1.4
COCCN(C(=O)Nc1ccccc1)c1ccccc1	0.0	x	2.1	-0.8	-8.9	0.5	1.8%	x
COc1ccc(CCC(=O)N2CC(C)OC(C)C2)cc1 (stereo not given)	-0.3	-15.1	89.4*	x	-6.4	0.3	-3.5%	x
O=C(c1cc(-c2ccc(Br)cc2)n[nH]1)N1CCN(C(=O)c2ccccc2Br)CC1	4.3	x	10.6	0.7	38.4	-1.1	0.9%	-0.5
O=C(C1CCCCC1)N1CCN=C1SCc1cccc([N+](=O)[O-])c1	1.1	-3.8	-5.2	0.6	-1.4	-0.8	13.8%	9.6
CS(=O)(=O)c1ccc2nc(NC(=O)c3ccccc3)sc2c1	3.5	14.3	-6.3	-3.1	19.6	-12.5	x	1.1
Cc1cc(NC(=O)c2cc(-c3ccc(C)s3)nc3ccccc23)no1	4.3	2.9	2.1	1.5	0.3	-0.3	-7.7%	-9.3
COc1cc(C2CC(=O)c3c([nH]c(C(=O)OCCOC(C)C)c3C)C2)cc(OC)c1OC (stereo not given)	0.9	30.6	5.4	3.3	-6.0	-0.9	7.3%	-1.2
O=C1Nc2ccccc2C1(O)Cc1ccncc1 (stereo not given)	-2.8	2.9	-1.8	-2.5	-0.4	0.4	21.6%	x
COc1ccc(C)cc1NC(=O)C(=O)NNC(=O)COc1ccc(Cl)cc1	-1.4	-6.3	31.1	5.5	8.3	-0.2	6.3%	-0.4
O=C1C2CCCN2C(c2ccc(F)cc2)N1c1nccs1 (stereo not given)	-1.9	-4.2	-1.9	0.2	-2.9	-0.8	12.2%	x
CCOC(=O)c1sc(N(Cc2ccccc2)C(=O)CSc2ncn[nH]2)nc1C	-0.3	-2.2	-6.7	-1.1	4.8	0.3	3.9%	x
CC(=O)c1ccc(NS(=O)(=O)Cc2ccc(Cl)cc2)cc1	-2.2	-4.9	-18.4	x	-18.7	0.4	0.8%	x
O=S(=O)(c1ccc(=S)[nH]c1)N1CCOCC1	0.9	-17.5	x	x	x	-0.1	-1.4%	-2.5
CCOC(=O)c1sc(=S)n(-c2ccccc2)c1N(C(C)=O)C(C)=O	-6.0	-0.9	0.9	0.2	-1.8	1.1	-6.4%	-2.8
COc1cc(OC)c(C(=O)OC(C)C(=O)Nc2cc(C(F)(F)F)ccc2Cl)cc1OC (stereo not given)	-2.9	8.0	8.4	4.7	18.6	-0.4	1.5%	-0.4
Cc1ccc(OCC(=O)Nn2c(C)nc3ccccc3c2=O)c(C(C)C)c1	-1.2	-3.2	u	7.4	-8.3	0.2	15.8%	-49.2
O=C(Nc1ccc(Cl)cc1)Nc1nnc(SCc2ccc(Cl)cc2)s1	7.5	-1.3	-9.6	0.3	-16.5	0.2	30.4%	-3.7
CCN1CCN(c2nc3c(c(=O)[nH]c(=O)n3C)n2CCCc2ccccc2)CC1	-2.6	0.9	-5.2	u	0.2	0.4	12.8%	1.1
Cn1ccnc1C(=O)c1ccccc1Cl	0.8	-5.4	4.3	2.0	-0.5	2.6	x	-2.5
Cc1sc(NC(=O)CN(C(=O)c2ccccc2F)C2CCCC2)c(C(N)=O)c1C	4.2	5.3	8.5	2.8	-13.5	-0.3	-2.0%	3.9
Cc1ccccc1NC(=O)c1ccc(F)c(S(=O)(=O)NCC2CCCO2)c1 (stereo not given)	-3.1	-1.6	28.3	2.6	-23.9	-0.1	x	-4.5
Cc1nn(-c2ccccc2)c(Cl)c1C(=O)OCC(=O)NCCc1ccccc1	5.0	-1.7	26.5	u	-15.2	-0.8	x	-2.0
Cc1cccnc1NC(=O)/C=C/c1ccc2c(c1)OCO2	-2.5	-12.1	-0.1	-4.7	-8.6	-2.3	9.1%	x
O=C(Nc1nc(-c2ccccn2)cs1)c1ccc(Cl)s1	6.4	92.5*	-3.1	-0.7	58.2*	-1.1	-95.6%	11.3
COc1ccc(C)cc1S(=O)(=O)N1CCC(C(=O)NC2CCCC2)CC1	-0.7	x	-2.6	-1.8	-1.6	-1.3	x	0.7
Cc1ccc(NS(=O)(=O)c2cccc3cccnc23)c(Br)c1	1.7	-0.4	-1.1	-0.8	-4.0	1.9	x	0.6
COCCn1c(SCc2csc(-c3ccccc3)n2)nc2ccccc21	-3.9	1.3	35.7	2.6	-0.6	-0.5	4.2%	x
CC(=O)Nc1sc2c(c1C(c1ccccn1)N1CCCC1)CCCC2 (stereo not given)	5.9	-2.7	-8.9	u	-2.7	-0.3	x	1.5
CN(Cc1ccccc1)C(=O)c1[nH]cnc1C(=O)Nc1ccon1	3.8	-5.5	x	x	x	1.0	x	-10.4
Cc1cc2c(c(=O)o1)C(CCC1CCCCC1)C(C#N)=C(N)O2 (stereo not given)	-7.4	3.2	-1.3	1.9	-4.9	0.9	x	1.6
CN1CCN(C(=O)Nc2cccc3ccccc23)CC1	-2.2	-1.0	-7.1	x	0.2	0.3	2.7%	-0.2
CC(/C=N/NC(=O)c1nn(C)c(C)c1Br)=C\c1ccccc1	-1.1	1.1	25.2	7.3	-1.6	0.0	18.5%	3.5
CCNC(=S)NN(c1ccccc1)c1ccccc1	1.0	-10.2	-30.1	1.5	6.1	0.5	-10.8%	x
Cc1cc(NC(=O)CCN2CCC(C)CC2)ccc1Br	1.4	-11.7	0.4	0.5	-1.2	-1.5	2.5%	-0.1
Cn1c(=O)c2c(nc(NCCCN3CCOCC3)n2Cc2ccc(Cl)cc2)n(C)c1=O	2.4	-1.9	0.5	u	-17.9	-0.2	-0.6%	x
C/C(=N/OC(=O)c1ccccc1Br)c1ccc(C)cc1	3.8	2.5	-6.5	1.8	-8.1	-0.3	x	4.6
CSc1ccccc1NC(=O)CN(C)C(=O)Cc1c[nH]c2ccccc12	2.5	-3.5	x	5.3	-5.4	1.4	x	0.4
Cc1nn(CCCC(=O)NCc2ccccc2)c(C)c1[N+](=O)[O-]	0.3	-6.4	1.2	2.9	-67.1	0.2	-0.7%	-17.2
COC(=O)c1ccc(NC(=O)c2ccc(C)cc2)o1	-2.3	0.7	-10.9	-1.8	x	-1.2	u	x
COc1ccc(Cn2c(-c3ccc(Cl)cc3)c[n+]3ccccc23)cc1	-2.3	2.9	-37.0	-1.8	48.6	-1.5	x	-0.3
O=C(CNC(=O)c1cccc(Cl)c1)N/N=C/c1cccnc1	0.6	4.7	4.4	3.3	-18.4	0.7	-2.4%	-2.8
Cc1ccccc1N(CC(=O)N/N=C/c1ccc(F)cc1)C(=O)c1ccccc1	1.4	x	32.6	2.0	8.6	-0.4	-2.3%	x
COc1ccc(NC(=O)CCCC(=O)NCCc2ccc(OC)c(OC)c2)cc1	3.0	-2.7	-8.0	-5.6	-3.5	1.7	u	1.8
Cc1c(NC(=S)NC(=O)c2ccco2)c(=O)n(-c2ccccc2)n1C	0.7	-1.2	-23.3	-4.9	2.3	0.7	-0.7%	x
Following part:
SMILES	LANA-H2B inh	Beta apoptosis	Calb FLC	RanGTP-Impb inh	T cruzi inh	Bfl-1 A1 inh	Vif A3G	MLL AF4-AF9 inh
CCN(CC(=O)NC1CCS(=O)(=O)C1)S(=O)(=O)c1ccc(C)cc1C (stereo not given)	3.0	-0.3	-1.7	0.3	-0.3	0.5	-1.9%	-9.1
CCC(CC)C(=O)Nc1cc(C(=O)NCCc2ccccc2)ccc1Cl	4.0	-5.2	32.9	-2.6	8.1	0.7	-7.4%	x
Cc1noc(C)c1NC(=O)Nc1ccc2c(c1)C(=O)N([C@H](C)CO)C[C@H](C)[C@@H](CN(C)S(=O)(=O)c1cn(C)cn1)O2	+	-2.6	x	x	x	0.5	2.3%	-1.7&-3.6
CN1CCC(=NNC(=O)C(=O)Nc2ccc(F)cc2)CC1	2.7	0.4	2.6	0.7	-6.0	-0.3	13.8%	-2.9
CCOc1ccc(NCc2nnc(SCC(=O)Nc3cc(C)on3)n2-c2ccc(OC)cc2)cc1	7.7	0.9	11.2	3.6	26.1	0.1	15.8%	x
Cc1ccc2nc(-c3ccccc3)cn2c1	1.6	32.4	-30.0	1.6	-16.4	-0.6	-2.0%	x
